Screening data (PubChem)
gsp agonist: gsp mutant agonism | actives 0.13% (n = 340,000) | gsp mutant cells, cAMP HTRF, 30 min; control for the full effect not named in the record | Potency, µM (top dose mostly 76.9 µM), for inactives: at the top dose activation (cAMP increase), usual class: activators; active = well fitted activation curve with a large enough effect; inconclusive = small, poorly fitted or top-dose-only effect, or another doubt; inactive = no such curve, though single readings can be large or run the other way; cell line not stated here;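 further: phosphodiesterase inhibitor Ro 20-1724 added with compounds to block cAMP breakdown; potency means the concentration at half of the fitted maximal effect; nearly all actives have a fitted effect of over 60% in size; about a fifth of the inactives were tested at one dose only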
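Cells in DMEM/10% FBS with G418 were pretreated with compounds in DMSO plus […] (300 uM stock) for 30 min at 37C. cAMP was measured by HTRF (cAMP-d2 plus anti-cAMP antibody-K) after 30 min at room temperature.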
TRPV1 PAM: potentiators of human vanilloid receptor 1 (TRPV1) | Q8NER1 | TRPV1-expressing cells, Fluo-8 calcium influx, capsaicin EC20 potentiation; host cell line not named in the record; control for the full effect not named in the record | potentiation, % at 8.33 µM | actives 0.02% (n = 320,000) | AID 540277; active means potentiation above 80%; inconclusive means 30% to 80%; inactive means below 30%; further: 0% is about no effect
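Cells expressing TRPV1 were dye-loaded with Fluo-8 and read kinetically: 10 s baseline, 3 min after compound (agonist portion), then 2 min after EC20 capsaicin (allosteric enhancer portion). Calcium-bound dye fluorescence at 480/520 nm.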
Menin-MLL FL inh: displaces fluorescein MLL peptide from human menin. AID 1766. FP activity change, % at 61.4 µM. Fluorescence polarization, fluorescein-MLL peptide displacement from menin. 290,000 tested, under 10 active; inconclusive = falling polarisation curve, or a change in total fluorescence; inactive = total fluorescence flat and polarisation flat or rising; no compound was filed as active; the % refers to the polarisation; negative = inhibition;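 further: % of control where 0% means no effect; inhibitors lower the polarisation; unlabelled MLL peptide was the positive control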
gsp antagonist: gsp mutant antagonism; Potency, µM (doses to about 76.9 µM), inactives show at the highest dose activity change, negative = inhibition, usual class: inhibitors; actives 0.4% (n = 340,000); gsp-mutant cells, cAMP HTRF, 30 min; control for the full effect not named in the record; active = falling curve of any shape with a large fitted effect; inconclusive = falling curve, mostly with a smaller effect; inactive = flat or rising curve; cell line not stated here;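 further: intracellular cAMP measured with PDE inhibitor Ro 20-1724 present during compound exposure; potency means the concentration at half of the fitted maximal effect; on the % scale 0 is the no-effect control and ±100 the full control effect; nearly all actives have a fitted effect of over 65% in size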
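Cells in G418 medium, seeded 16-24 h, 37C; buffer exchange to DPBS + 1 mM CaCl2, 0.5 mM MgCl2, 0.05% BSA; cpds in DMSO + […] (300 uM stock), 30 min 37C; HTRF cAMP detection.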
Sfp inh: blocks B. subtilis Sfp PPTase activity. Potency, µM, for the others: max response, negative = inhibition, hits mostly inhibitors. actives 3.5% (n = 310,000). Biochemical Sfp PPTase activity, qHTS. AID 1490. Q9F4F7; active means well fitted inhibition curve with a large enough effect; inconclusive means small, poorly fitted or top-dose-only effect, or another doubt; inactive means no such curve, though single readings can be large or run the other way;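 further: the enzyme is Sfp with the accession as filed and its product quenches rhodamine fluorescence; potency means the concentration at half of the fitted maximal effect; 0% = enzyme reaction without inhibitor and -100% = no enzyme wells; top concentration of the series not given in the record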
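Reaction rates are the 30-min fluorescence difference (ex 525, em 598 nm) in wells containing 15 nM Sfp, 5 uM rhodamine-CoA and 12.5 uM BHQ-2-YbbR at pH 7.6 with 10 mM MgCl2.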
ClpP mod: qHTS Assay for Activators of ClpP; purified B. subtilis ClpP, FRET peptide cleavage, 20 min; ATP-dependent Clp protease proteolytic subunit (Bacillus subtilis (strain 168)), P80244; AID 651965, 2013; Potency, µM (highest dose often 57.5 µM), for inactives: at the highest dose activity change, negative = active; actives 1.9% (n = 340,000); active = well fitted falling curve with a large enough effect; inconclusive = small, poorly fitted or top-dose-only effect; inactive = no such curve, though single readings can be large or run the other way; further: potency means the concentration at half of the fitted maximal effect; the source files actives as falling curves though it sought activators and does not explain the sign; nearly all actives have a fitted effect of over 65% in size; many hits overshoot -100%
Target sequence (P80244 whole entry, looked up): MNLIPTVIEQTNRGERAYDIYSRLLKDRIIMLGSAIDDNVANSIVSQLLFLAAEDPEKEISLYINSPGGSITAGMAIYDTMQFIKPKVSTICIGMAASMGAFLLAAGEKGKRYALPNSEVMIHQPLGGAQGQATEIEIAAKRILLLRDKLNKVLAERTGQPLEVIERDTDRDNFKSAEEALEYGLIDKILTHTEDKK
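ClpP 10 microg/mL final, pH 8 Tris/KCl buffer with BSA, glycerol, Tween-20; compound pinned in; FRET-FV substrate; RT 20 min; Ex320/Em430; ΔFRET vs ADEP 5.8 microM, DMSO, no enzyme.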
TRPML1 blocker: human mucolipin-1 channel inhibition | TRPML1-inducible cells, Ca2+ dye fluorescence, FDSS; hits give low values; inhibition of EC80 agonist-evoked calcium signal | actives 0.02% (n = 390,000) | Q9GZU1 | AID 624415 | activity change, negative = inhibition, % (no concentration beside the values); in the data active means activity change below about -50%; inconclusive means about -30% to -50%; inactive means above about -30%;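 further: stimulus is agonist 54-4 at its EC80 concentration; on the % scale 0 is the no-effect control and ±100 the full control effect; compound concentration not given in the record; the text of the record puts the active cut at -80%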
Target sequence (Q9GZU1 whole entry, looked up): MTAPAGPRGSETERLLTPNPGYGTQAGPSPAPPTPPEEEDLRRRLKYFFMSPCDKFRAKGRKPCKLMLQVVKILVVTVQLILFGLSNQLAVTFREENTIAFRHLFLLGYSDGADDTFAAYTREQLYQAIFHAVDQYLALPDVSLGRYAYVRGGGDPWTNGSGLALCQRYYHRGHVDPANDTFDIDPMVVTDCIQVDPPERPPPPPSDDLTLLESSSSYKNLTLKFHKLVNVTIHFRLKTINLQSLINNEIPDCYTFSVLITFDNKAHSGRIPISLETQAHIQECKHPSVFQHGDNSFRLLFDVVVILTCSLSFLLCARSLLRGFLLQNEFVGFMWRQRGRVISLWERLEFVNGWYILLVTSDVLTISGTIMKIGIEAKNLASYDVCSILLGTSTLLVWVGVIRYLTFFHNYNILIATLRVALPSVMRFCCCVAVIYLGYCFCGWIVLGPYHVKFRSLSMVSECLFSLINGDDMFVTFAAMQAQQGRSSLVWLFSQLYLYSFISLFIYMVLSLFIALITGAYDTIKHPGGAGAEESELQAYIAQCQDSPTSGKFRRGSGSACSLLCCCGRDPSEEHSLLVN
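TRPML1-DL cells, Tet-induced overnight (~16 h, 37 °C) at 1,500 cells/well, were loaded with Ca8 no-wash dye plus quencher for 45-90 min at room temperature. Compounds were pinned during FDSS kinetic reading; agonist 54-4 at EC80 (4 uM final) then added.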
* = called active by the depositor; ? = inconclusive; / = no result given; & = joins results of further samples; [ ] = another dose, or the depositor's remark. Outcome played no part in choosing rows. Share with any hit: about 4.9%.

SMILES | gsp agonist | TRPV1 PAM | Menin-MLL FL inh | gsp antagonist | Sfp inh | ClpP mod | TRPML1 blocker
O=C1[C@H]2[C@@H](c3ccc(F)cc3)N3C(=O)N(c4ccccc4)C(=O)[C@@]3(Cc3ccc(Cl)cc3)[C@H]2C(=O)N1C1CCCCC1 | 8% | 2 | -1.0 | -7% | 3% | 2.2% | -8
c1ccc(-n2nnnc2-n2ccnc2)cc1 | -8% | -13 | 2.0 | 7% | 4% | 1.5% | -2
CCOc1ccc(NC(=O)C2CCCN(S(=O)(=O)c3c(C)noc3C)C2)cc1 (stereo not drawn) | 8% | 12 | 5.4 | 12% | 33%[activator] | / | -6
CCN(CC)C(=O)C1=C(C)N(CCC2=CCCCC2)C(=O)C(CC(=O)NCCCCc2ccccc2)C1 (stereo not drawn) | -21% | / | / | / | / | 1.1% | 14
CN1CC(COCc2ccccc2)Oc2ccccc2S1(=O)=O (stereo not drawn) | / | / | / | -7% | / | -0.4% | 4
O=S(=O)(c1cccc2ccccc12)N1CCCCC1 | 8% | 12 | -0.4 | -4% | 2% | -2.5% | -4
COC(=O)C1=C[C@@H](C(=O)OC)C2C3=C(C(=O)[C@@]2(C)NC(=O)c2ccccc2)[C@H](C)n2c(=O)n(-c4ccccc4)c(=O)n2[C@@H]3C1 (stereo partly drawn) | / | / | 3.0 | / | 4% | / | 10
O=C(COc1cccnc1[N+](=O)[O-])NCCc1ccc(Cl)cc1Cl | 26% | 30 | -0.5 | -1% | 6% | / | 7
COc1ccccc1CNC(=O)c1ccc(OC(C)C)cc1 | -41%[inhibitor] | 1 | -2.0 | 1% | -3% | / | -13
CC1=C(C)CC(C(=O)Nc2ccc(C(=O)N3CCOCC3)cc2)C(C(=O)O)C1 (stereo not drawn) | -14%[15.4 µM] | 5 | -3.8 | 8% | 14% | / | 48
Cc1ccc(Cl)cc1N1CCN(C(=S)NCCc2ccccc2)CC1 | -1% | -23 | -0.3 | -8% | -7% | / | 13
Cc1ccc(C(=O)NC(=S)Nc2ccc(-c3ccc(CO)o3)cc2)cc1 | 18%[15.4 µM] | -32 | 2.1 | -25% | 7.1µM* | / | 31
COc1ccc(CNC(=O)CSc2nnc(C)c(=O)[nH]2)cc1 | -13%[15.4 µM] | 1 | 0.7 | -4% | ? | / | -13
COC(=O)c1cc2ccsc2n1CC(=O)N1CCCc2ccccc21 | -13% | 6 | 5.0 | -14% | -11% | -1.3% | 23
CCc1ccc(N2C(=O)Nc3ccc(Br)cc3C2(O)C(=O)NCCN(C)C)cc1 (stereo not drawn) | 3%[15.4 µM] | -14 | 1.4 | -10% | 9% | -2.0% | -3
CC1CN(C(=O)NCc2ccccc2)c2cc(Cl)ccc2O1 (stereo not drawn) | 17% | -8 | -0.1 | -7% | 4% | -0.9%&0.6% | 20&-7
Cc1cccc(NC(=O)CN(C)S(=O)(=O)c2cccc3cccnc23)c1C | -16% | 0 | -0.6 | -1% | -1% | -0.5% | -4
Cc1ccc(S(=O)(=O)NC(CC(C)C)C(=O)NCCCn2nc(C)cc2C)cc1 (stereo not drawn) | 29% | 20 | / | -9% | / | -1.3% | -21
Nc1nc(SCc2ccc([N+](=O)[O-])cc2)c2ncn(C3OC(CO)C(O)C3O)c2n1 (stereo not drawn) | 30% | -13 | -0.5 | -14% | ? | -1.7% | 31
CN(CC(=O)NCc1cccnc1)S(=O)(=O)c1ccc2c(c1)c(=O)n(C)c(=O)n2C | -1% | 7 | 0.2 | 4% | 5% | -11% | -8
Cc1noc(C)c1CSCC(=O)N(C)CC(=O)Nc1ccccc1Cl | 19% | 22 | / | 5% | 10% | -1.9% | 6
CCOc1cc(/C=C(\C#N)C(N)=O)ccc1OS(=O)(=O)c1ccccc1 | 4% | 0 | 1.4 | -12% | ? | -1.0% | -5
Cc1cccc(OC(C)C(=O)Nc2ccc3c(c2)OCCO3)c1 (stereo not drawn) | 3%[15.4 µM] | / | / | 3% | / | / | -4
c1coc(CN2CCN(C(c3cccs3)c3nnnn3C3CCCC3)CC2)c1 (stereo not drawn) | -5% | -2 | -0.3 | 4% | 12% | -3.4% | 9
COc1cccc2cc(C(C)N(CCCN3CCOCC3)C(=O)Nc3ccc(Cl)cc3)oc12 (stereo not drawn) | -21% | -3 | -0.3 | -1% | 0% | -0.8% | 2

Further entries follow.
SMILES | gsp agonist | TRPV1 PAM | Menin-MLL FL inh | gsp antagonist | Sfp inh | ClpP mod | TRPML1 blocker
CC(O)Cc1nsc(NC(=O)c2ccc(Br)o2)n1 (stereo not drawn) | -15% | -30 | -0.1 | -10% | 23% | -0.5% | 10
CC(=O)c1ccc(N2CCN(C(C)C(=O)NC3CCCc4ccccc43)CC2)cc1 (stereo not drawn) | ? | 15 | -5.0 | ? | 13% | -5.6% | 14
COc1ccc(/C=C2\SC(=S)N(CCC(=O)NC3=NCCS3)C2=O)cc1OC | -33%[inhibitor] | 10 | 5.2 | -16% | -5% | -2.5% | 15
Cc1nn(C)c(C)c1Sc1ccccc1N | -4%[15.4 µM] | 11 | 1.1 | -1% | 27% | -4.1% | 0
NS(=O)(=O)c1ccc(CCNC(=O)C2CCN(S(=O)(=O)c3ccc(Br)s3)CC2)cc1 | -4%[15.4 µM] | 23 | -0.7 | 8% | 9% | / | 10
CN(C)CCn1c(=O)n(C2CCCCC2)c(=O)c2c3c(sc21)CCCCC3 | 30%[15.4 µM] | / | / | 8% | / | / | -4
CCOc1ccc(CSc2nc(C)cc(COC)c2C#N)cc1OCC | 1% | 0 | 4.9 | -3% | -1% | -0.1% | 6
CCOc1cc(CNC(=O)CN2C(=O)c3ccccc3S2(=O)=O)ccc1OC | -16% | -3 | 5.5 | -4% | -9% | -2.0% | -2
S=C(NCCN1CCOCC1)Nc1cccc(Cl)c1 | 1%[15.4 µM] | -4 | 2.1 | 6% | 7% | 1.6% | -8
Cc1ccc(-n2nnc3c(=O)n(CC(=O)N4CCCC4)cnc32)cc1 | -19% | 7 | 4.8 | -1% | 16% | -0.4% | -8
CCOC(=O)c1c(NC(=O)c2cccnc2Cl)sc(C(=O)N(C)C)c1C | -5% | 1 | 3.6 | 2% | 20% | -1.9% | -14
O=C(CN(Cc1ccco1)C(=O)CNS(=O)(=O)c1ccccc1)NC1CCCCC1 | -36% | -12 | 0.3 | -26% | 14% | 1.2% | 2
O=C(Cc1nc2ccccc2[nH]c1=O)c1ccccc1 | -7%[15.4 µM] | 4 | ? | -9% | 4% | / | 11
O=C(Nc1c(-c2cccs2)nc2ccccn12)c1ccccc1F | 6%[15.4 µM] | 19 | 2.5 | -3% | 16% | / | -1
Cc1oc2cc(Br)c(O)c(Br)c2c1C(=O)c1ccccc1 | -1% | 8 | 6.6 | 15% | 1% | -1.6% | 2
COc1ccccc1NC(=O)CCS(=O)(=O)c1ccc2c(c1)oc(=O)n2C | 10% | -22 | / | 7% | 12% | 4.4% | 19
CCN1CCN(CC(=O)Nc2cc(C)on2)CC1 | -7% | -7 | -2.5 | 4% | ? | / | 1
Cc1cc(=O)oc2cc(OCC(=O)N3CCN(C(=O)c4ccco4)CC3)ccc12 | 5% | -11 | 6.9 | 0% | 12% | 4.2% | 21
COc1ccc2c(c1)c1c(c(=O)n(-c3ccc(OC)c(OC)c3)c(=O)n1Cc1ccccc1C)n2C | / | 2 | / | / | / | ? | -22
CC(=O)NCC(=O)OCC(=O)c1ccc(C)cc1 | -8% | -15 | 6.7 | -4% | 18% | 1.1% | -11
O=C(O)c1cccc(NC(=O)c2ccc3c(c2)C(=O)N(c2ccccc2)C3=O)c1 | -21%[15.4 µM] | 19 | -9.3 | 6% | 8% | 8.9µM* | 7
CCN(CC)S(=O)(=O)c1ccc(N2CCCC2)c(NC(=O)CSCc2c(C)noc2C)c1 | ? | / | / | / | / | -1.4% | -2
COc1ccc(C2=NN(c3ccccc3)C(=O)/C2=C\c2ccc(O)c(OC)c2)cc1 | -82%[inhibitor] | 6 | 10 | -9% | 5% | -0.5% | -11
COc1cc(OC)c(OC)cc1CNC(=O)c1cc(=O)[nH]c2ccccc12 | -25%[15.4 µM] | 11 | -3.1 | -3% | 12% | / | 0
O=C1CC(=O)C(n2cncn2)C(c2c(F)cccc2Cl)C1 (stereo not drawn) | -5% | 21 | 1.8 | 4% | 13% | -2.3% | 19

Next section
SMILES | gsp agonist | TRPV1 PAM | Menin-MLL FL inh | gsp antagonist | Sfp inh | ClpP mod | TRPML1 blocker
COc1ccc(S(=O)(=O)NCC(=O)N(CC(=O)NCC2CCCO2)c2c(C)cccc2C)cc1 (stereo not drawn) | -50%[inhibitor] | 0 | 0.1 | -3% | 15% | -2.6% | 2
COC(=O)[C@H](Cc1c[nH]c2ccccc12)NC(=O)Nc1ccccc1OC | 3%[15.4 µM] | / | -2.5 | -10% | -8% | ? | -7
O=C(CCCOc1ccccc1)Nc1cccc(S(=O)(=O)N2CCCCCC2)c1 | 6% | -2 | / | 4% | / | 1.3% | 22
O=C(O)c1ccc(N/N=C/c2ccc(-c3cccc(Cl)c3)o2)cc1 | 4% | 15 | 21 | -19% | -22% | -21% | /
Cc1noc(C)c1/C=N/Nc1ccccn1 | -5%[15.4 µM] | -17 | 0.0 | 10% | -7% | / | -1
COc1cccc(CC(NC(C)=O)C(=O)NC2CCN(S(=O)(=O)c3ccc(F)cc3)CC2)c1OC (stereo not drawn) | ? | -1 | -0.9 | 6% | 18% | / | 1
O=C(COc1ccc2c(-c3ccccc3)cc(=O)oc2c1)NCCN1CCOCC1 | ? | 1 | 2.6 | 0% | 18% | -5.5% | 8
COc1cc(NC(=O)CCCNC(=O)Cn2cnc3sc(C)c(C)c3c2=O)cc(OC)c1OC | 9%[15.4 µM] | 12 | -1.5 | 1% | 2% | / | -8

Limited to TRPV1 PAM and gsp antagonist, for 2 of the compounds above:
mol | TRPV1 PAM | gsp antagonist
COc1cccc(CC(NC(C)=O)C(=O)NC2CCN(S(=O)(=O)c3ccc(F)cc3)CC2)c1OC (stereo not drawn) | -1 | 6%
O=C(COc1ccc2c(-c3ccccc3)cc(=O)oc2c1)NCCN1CCOCC1 | 1 | 0%
